Screening results as filed in PubChem BioAssay.
AmpC inh no det – inhibitors of E. coli AmpC beta-lactamase without detergent | P00811 | AmpC nitrocefin hydrolysis, absorbance 480 nm, no detergent; potencies from a single point are estimates | Potency, µM (series often up to 28.7 µM), for inactives: top-dose activity change, negative = inhibition | actives 1.8% (n = 71,000) | AID 585; active = falling curve, for most hits resting on a single point; inconclusive = weak or doubtful change; inactive = flat or rising curve; note: % of control where 0% means no effect; about half of the hits show no inhibition at the top dose; a quarter of the inactives give rising signals
Target sequence (P00811 whole entry, looked up): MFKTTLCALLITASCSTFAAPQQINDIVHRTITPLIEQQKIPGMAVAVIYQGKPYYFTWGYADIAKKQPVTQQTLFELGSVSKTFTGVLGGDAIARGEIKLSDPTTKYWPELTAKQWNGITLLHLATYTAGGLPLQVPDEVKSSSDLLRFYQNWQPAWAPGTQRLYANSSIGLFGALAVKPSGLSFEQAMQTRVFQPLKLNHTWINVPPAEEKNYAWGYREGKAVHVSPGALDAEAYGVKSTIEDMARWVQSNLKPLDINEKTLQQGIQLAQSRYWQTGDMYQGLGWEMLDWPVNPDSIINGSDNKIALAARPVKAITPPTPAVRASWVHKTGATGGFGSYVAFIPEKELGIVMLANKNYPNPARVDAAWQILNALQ
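AmpC in 20 mM phosphate buffer pH 7.0 was preincubated 15 min at room temperature with compounds. Nitrocefin (800 uM stock) was then added and hydrolysis followed at 480 nm every 20 s for 4 min.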
* marks the source's active call; other numbers are inactive results; [ ] = dose if it differs, or a comment. Potency is the fitted concentration of half-maximal effect.

How did C=CCn1c(N)cc(=O)nc1SCC(=O)NC(C)c1ccccc1 (stereo not drawn) do in these assays?
AmpC inh no det: -6.8%

How did c1ccc(CN2CC[C@@]3(CCCNC3)C2)cc1 do in these assays?
AmpC inh no det: 1.6%

What do the screens show for `Cc1ccc(Cn2nnc(C(=O)Nc3cc(C)ccc3C)c2N)cc1`?
AmpC inh no det: -6.2%

How did CC(=O)N1C(=O)C2(C(C#N)=C(N)Oc3cc(C)oc(=O)c32)c2ccccc21 (stereo not drawn) do in these assays?
AmpC inh no det: -0.3%

How did COc1cccc(CC(NC(C)=O)C(=O)NC2CCN(c3nc(C)cc(C)c3C#N)CC2)c1 (stereo not drawn) do in these assays?
AmpC inh no det: 138.3%

What do the screens show for `COC(=O)c1ccccc1N(C)C(=O)C12CCC(C)(C(=O)O1)C2(C)C` (stereo not drawn)?
AmpC inh no det: 12.1%

How did COc1cccc2cc(C(=O)N3CCC(C)CC3)c(=O)oc12 do in these assays?
AmpC inh no det: 4.7%

How did O=C(Nc1c(C(=O)N2CCOCC2)cnn1-c1ccccc1Cl)c1ccco1 do in these assays?
AmpC inh no det: 2.9%

What do the screens show for `COC(=O)c1ccsc1NC(=O)CN1CCN(c2ccc(F)cc2)CC1`?
AmpC inh no det: -1.6%

Results for Clc1ccc(CSc2nnc([C@@H]3CCCN3)o2)cc1Cl ?
AmpC inh no det: 27.7%

How did C=CCN(CC=C)c1nc2ccccc2nc1C(C#N)C(=O)OCCOC (stereo not drawn) do in these assays?
AmpC inh no det: 114.6%

Results for COC(=O)C1=C(N)Oc2cc(C)n(CC3CCCO3)c(=O)c2C1c1ccc(Cl)cc1 (stereo not drawn) ?
AmpC inh no det: 76.7%

What do the screens show for `CC1(C)CC(=O)C=C(NC2CCS(=O)(=O)C2)C1` (stereo not drawn)?
AmpC inh no det: -5.5%

How did C=CCn1c(CSc2nc3ccccc3s2)nnc1SCC(=O)OCC do in these assays?
AmpC inh no det: 57.9%

What do the screens show for `CC(Oc1ccc(-c2ccccc2)cc1)C(=O)O` (stereo not drawn)?
AmpC inh no det: 3.7%

Results for CCCOc1ccc(CSc2nnc(CCC)n2N)cc1 ?
AmpC inh no det: 6.4%

What do the screens show for `Cc1ccc(Nc2nc(Oc3ccc(OCc4ccccc4)nn3)nc(N3CCOCC3)n2)cc1`?
AmpC inh no det: 90.8%

What do the screens show for `COc1cccc(-c2nc(-c3ccc(NC(=O)c4cccnc4)cc3)no2)c1`?
AmpC inh no det: 34.9%

Results for C=CCn1c(=O)c2ccccc2n2c(SCC(=O)Nc3cc(C)on3)nnc12 ?
AmpC inh no det: -7.7%

What do the screens show for `COc1cccc(-n2nnnc2SCC(=O)NCc2ccc3c(c2)OCO3)c1`?
AmpC inh no det: 10.5%

Results for COc1ccc(OC)c(-n2c(SCC(C)=O)nnc2-c2cccc(S(=O)(=O)N(C)C)c2)c1 ?
AmpC inh no det: 109.4%

What do the screens show for `CN(/N=C\c1ccccc1O)c1ccc2ccccc2n1`?
AmpC inh no det: 3.1%[5.75 µM]

Results for Cn1cnc([N+](=O)[O-])c1Sc1nnc(-c2cccnc2)n1C ?
AmpC inh no det: 9.2%[5.75 µM]

Results for CO[C@H]1OC[C@@]2(C)[C@@H]3C4=C(CN2C(=O)OC(C)(C)C)[C@H](C)[C@H](CO)[C@H](CO)[C@H]4CC[C@H]13 ?
AmpC inh no det: 168.5%

What do the screens show for `O=C(Cc1ccccc1)Nc1ccc(N2CCOCC2)cc1N1CCOCC1`?
AmpC inh no det: 56.5%

How did C=CCNS(=O)(=O)c1nc(C)c(Cl)c(C)c1C#N do in these assays?
AmpC inh no det: -0.1%

What do the screens show for `Cc1cc(C)n2c3c(c(C#N)c2n1)CCCC3`?
AmpC inh no det: 4.6%

Results for CCCC(C)CO (stereo not drawn) ?
AmpC inh no det: -1.1%

What do the screens show for `O=C(c1ccc(S(=O)(=O)N2CCCC2)cc1)N1CCN(Cc2ccc3c(c2)OCO3)CC1`?
AmpC inh no det: 96.7%

What do the screens show for `C=CCn1c(O)c(C(C)=Nc2ccc(N(C)C)cc2)c(=O)[nH]c1=O`?
AmpC inh no det: 3.2%

What do the screens show for `O=C(CCCn1c(=S)[nH]c2cc3c(cc2c1=O)OCO3)N1CCN(c2ccc(Cl)cc2)CC1`?
AmpC inh no det: -11.7%

Results for CC(=O)N1CCN(S(=O)(=O)c2ccc(S(=O)(=O)NCC(C)C)cc2)CC1 ?
AmpC inh no det: -4.1%

What do the screens show for `Clc1ccc(CC[C@H](Cn2ccnc2)Sc2c(Cl)cccc2Cl)cc1`?
AmpC inh no det: 11.1%[12.8 µM]

Results for Cc1nc(=O)c(-c2ccccc2)c(C)n1-c1cccc(C(=O)O)c1 ?
AmpC inh no det: -3.5%

Results for COc1ccc(N(C)C(=O)Nc2ccc3c(c2)nnn3C)cc1 ?
AmpC inh no det: -2.5%

Results for CCN(CC)C(=O)C(C)N(C#N)c1nc(SC)nc(N(C)C)n1 (stereo not drawn) ?
AmpC inh no det: -0.1%

Results for COc1ccccc1OCCCn1c(=O)oc2ccc(C)cc21 ?
AmpC inh no det: 40.2%

What do the screens show for `CCOc1ccc(N2C(=O)NC(Cc3c[nH]c4ccccc34)C2=O)cc1` (stereo not drawn)?
AmpC inh no det: -0.5%

What do the screens show for `Cc1ccc2nc(CCc3nc4ccc(C)cc4o3)oc2c1`?
AmpC inh no det: 8.3%

What do the screens show for `COc1ccc(-n2c(=O)cc(N3CCOCC3)[nH]c2=O)cc1`?
AmpC inh no det: -1.8%

How did COc1ccc(NC(=O)CSc2nnc(Cc3cccn3C)n2-c2ccc(F)cc2)cc1OC do in these assays?
AmpC inh no det: 138.6%

What do the screens show for `O=C(O)C1C2CCC(C2)C1C(=O)Nc1cc(F)ccc1F` (stereo not drawn)?
AmpC inh no det: 0.8%

Results for CCn1c(SC/C=C/c2ccccc2)nnc1-c1cccs1 ?
AmpC inh no det: -7.4%

Results for CC(=O)Nc1ccccc1C(=O)N1CCc2ccccc21 ?
AmpC inh no det: -4.9%

Results for Cn1c(COc2ccccc2)nnc1SCc1cc(=O)[nH]c2ccccc12 ?
AmpC inh no det: 46.4%

How did Cc1cc(C)cc(OP(=O)(Oc2cc(C)cc(C)c2)Oc2cc(C)cc(C)c2)c1 do in these assays?
AmpC inh no det: -15.5%

What do the screens show for `Cc1ccc(Cl)cc1N1CCN(C(=O)C2CCC(=O)N2C(C)C)CC1` (stereo not drawn)?
AmpC inh no det: 140.0%

How did COc1cccc(NC(=O)Cn2cnc3sc(C)c(S(=O)(=O)N4CCN(C)CC4)c3c2=O)c1 do in these assays?
AmpC inh no det: 15.8%

What do the screens show for `[O-]/[N+](=C/c1cccnc1)c1ccc(Br)cc1`?
AmpC inh no det: -4.4%

Results for FC(F)(F)c1ccccc1-c1nc(-n2ccnc2)c2ccccc2n1 ?
AmpC inh no det: 23.7%

What do the screens show for `CC1CSc2nnc(CCc3ccccc3)n21` (stereo not drawn)?
AmpC inh no det: -4.3%

What do the screens show for `COc1ccc(C2(C(=O)NCCCN3CCOCC3)CCOCC2)cc1`?
AmpC inh no det: -20.0%

How did COc1cc(NC(=O)c2ccco2)c(OC)cc1NC(=O)Nc1cccc(Cl)c1 do in these assays?
AmpC inh no det: 40.1%

How did COc1ccccc1N1CCN(C(=O)CSc2nc3ccccc3c(=O)n2CC2CCCO2)CC1 (stereo not drawn) do in these assays?
AmpC inh no det: 153.3%

How did S=C1SCN(C2CCCCCCCCCCC2)CN1C1CCCCCCCCCCC1 do in these assays?
AmpC inh no det: 0.2%[5.75 µM]

What do the screens show for `CCOc1ccc2nc(NC(=O)C3CCCN(S(=O)(=O)c4cccs4)C3)sc2c1` (stereo not drawn)?
AmpC inh no det: -18.4%

How did Cn1c(C(=O)NCC2CCCO2)cc2c(=O)[nH]c3ccccc3c21 (stereo not drawn) do in these assays?
AmpC inh no det: 20.3%

How did CCCNC(=O)Cn1cccc1C(=O)c1ccccc1 do in these assays?
AmpC inh no det: -4.2%

What do the screens show for `Clc1ccc2nc(CN3CCCc4ccccc43)cn2c1`?
AmpC inh no det: 41.4%

How did COc1cc(OC)c(C2N(C)c3ccccc3N2C)cc1OC do in these assays?
AmpC inh no det: -6.0%

How did CNCC[C@H](Oc1ccc(C(F)(F)F)cc1)c1ccccc1 do in these assays?
AmpC inh no det: 18.9%

What do the screens show for `Cc1ccc(C)c2[nH]c(=O)c(C(c3nnnn3C3CCCC3)N3CCOCC3)cc12` (stereo not drawn)?
AmpC inh no det: 91.3%

What do the screens show for `CC1CCCCC1NS(=O)(=O)c1ccc(-n2cnnn2)cc1` (stereo not drawn)?
AmpC inh no det: 9.3%

Results for Cn1c(Cc2ccccc2)nnc1SCC(=O)N1CCN(c2ccccc2)CC1 ?
AmpC inh no det: 4.7%

How did CN1CCN(CCCNC(=O)c2cc3c(=O)n(C)c4ccccc4c3s2)CC1 do in these assays?
AmpC inh no det: 32.8%

Results for CCn1c(SCC(=O)Nc2nc(C)c(C)s2)nnc1-c1cccnc1 ?
AmpC inh no det: 18.3%

Results for Cc1nc2cnc(N3CCOCC3)nc2n(CCC#N)c1=O ?
AmpC inh no det: 11.4%

Results for COc1ccc(C(CNC(=O)COc2ccccc2C#N)N2CCOCC2)cc1 (stereo not drawn) ?
AmpC inh no det: 41.4%

Results for Cc1ccc(C)c(N(C(=O)CCC(=O)Nc2cc(C)on2)C(C(=O)NC2CCCC2)c2ccco2)c1 (stereo not drawn) ?
AmpC inh no det: 62.6%

What do the screens show for `O=S(=O)(Nc1ccc2c(c1)nc1n2CCN(Cc2ccccc2)C1)c1ccc(F)cc1`?
AmpC inh no det: -4.3%

Results for CCSc1nnc(NC(=O)c2csc(C)c2)s1 ?
AmpC inh no det: -13.3%

How did COc1ccc(C(=O)Nc2nc(-c3cccs3)cs2)cc1 do in these assays?
AmpC inh no det: -13.4%

Results for NC(=O)c1ccc(C2SCC(=O)N2Cc2ccccc2)cc1 (stereo not drawn) ?
AmpC inh no det: -4.1%

How did COC(=O)c1[nH]c2ccc(Cl)cc2c1NC(=O)CN1CCC(C(N)=O)CC1 do in these assays?
AmpC inh no det: 30.7%

What do the screens show for `O=C(c1ccccc1)c1coc2ccc(O)c(CN3CCOCC3)c12`?
AmpC inh no det: 18.9%

How did COc1ccc(CNC(=O)C2CCN(S(=O)(=O)c3c(C)n[nH]c3C)CC2)cc1 do in these assays?
AmpC inh no det: -4.3%

How did O=[N+]([O-])c1ccc2nc[nH]c2c1 do in these assays?
AmpC inh no det: -6.9%

What do the screens show for `CCOC(=O)N1CCN(S(=O)(=O)Cc2ccccc2)CC1`?
AmpC inh no det: 20.1%

How did CCCS(=O)(=O)N1CCN(Cc2ccccc2C(F)(F)F)CC1 do in these assays?
AmpC inh no det: 53.6%

How did COc1ccc(-c2nc(C#N)c(N3CC(C)OC(C)C3)o2)cc1OC (stereo not drawn) do in these assays?
AmpC inh no det: 71.6%

What do the screens show for `COC(=O)COc1ccc(S(=O)(=O)NCC2CCCO2)cc1Cl` (stereo not drawn)?
AmpC inh no det: 17.0%

How did Cn1c(=O)c2c(nc(NCCCO)n2C/C=C/c2ccccc2)n(C)c1=O do in these assays?
AmpC inh no det: 33.1%

Results for COc1ccc(C(=O)C(CO)Oc2ccccc2OC)cc1OC (stereo not drawn) ?
AmpC inh no det: 11.7%

How did CN1CCc2cc(Cl)c(O)cc2[C@H](c2ccccc2)C1 do in these assays?
AmpC inh no det: 2.0%

Results for Cc1c(N=Cc2nc3ccccc3n2C)c(=O)n(-c2ccccc2)n1C ?
AmpC inh no det: 20.7%

What do the screens show for `COc1ccc(CNC(=O)C2C3C=CC4(CN(Cc5cccnc5)C(=O)C24)O3)cc1` (stereo not drawn)?
AmpC inh no det: -6.4%

What do the screens show for `COc1ccc([C@@H]2CC(=O)c3c(O)cc(O)cc3O2)cc1O`?
AmpC inh no det: -21.9%

What do the screens show for `CCOC(=O)CN1C(=O)C(=O)c2cccc(C)c21`?
AmpC inh no det: 3.98µM*[single pt active]

How did Cc1ccc(-c2nnc(SCC(=O)N3CCN(c4ccccc4)CC3)o2)cc1 do in these assays?
AmpC inh no det: -14.2%

Of the compounds above, these have a cyano group:
How did CC(=O)N1C(=O)C2(C(C#N)=C(N)Oc3cc(C)oc(=O)c32)c2ccccc21 (stereo not drawn) do in these assays?
AmpC inh no det: -0.3%

How did COc1cccc(CC(NC(C)=O)C(=O)NC2CCN(c3nc(C)cc(C)c3C#N)CC2)c1 (stereo not drawn) do in these assays?
AmpC inh no det: 138.3%

How did C=CCN(CC=C)c1nc2ccccc2nc1C(C#N)C(=O)OCCOC (stereo not drawn) do in these assays?
AmpC inh no det: 114.6%

How did C=CCNS(=O)(=O)c1nc(C)c(Cl)c(C)c1C#N do in these assays?
AmpC inh no det: -0.1%

What do the screens show for `Cc1cc(C)n2c3c(c(C#N)c2n1)CCCC3`?
AmpC inh no det: 4.6%

Results for CCN(CC)C(=O)C(C)N(C#N)c1nc(SC)nc(N(C)C)n1 (stereo not drawn) ?
AmpC inh no det: -0.1%

Results for Cc1nc2cnc(N3CCOCC3)nc2n(CCC#N)c1=O ?
AmpC inh no det: 11.4%

Results for COc1ccc(C(CNC(=O)COc2ccccc2C#N)N2CCOCC2)cc1 (stereo not drawn) ?
AmpC inh no det: 41.4%

How did COc1ccc(-c2nc(C#N)c(N3CC(C)OC(C)C3)o2)cc1OC (stereo not drawn) do in these assays?
AmpC inh no det: 71.6%

Compounds shown so far that contain a nitro group on carbon (two):
Results for Cn1cnc([N+](=O)[O-])c1Sc1nnc(-c2cccnc2)n1C ?
AmpC inh no det: 9.2%[5.75 µM]

How did O=[N+]([O-])c1ccc2nc[nH]c2c1 do in these assays?
AmpC inh no det: -6.9%

A portion of the library; the hit share may differ from the screen's.
